# GLA inh pH 4.5 – alpha-galactosidase A (human) inhibition, pH 4.5; purified enzyme, 4-MU-alpha-Gal fluorescence, pH 4.5; activity change, negative = inhibition, % at 105 µM; 230,000 tested, under 10 active; AID 1467; inconclusive = small, poorly fitted or top-dose-only inhibition, or a rising curve; inactive = flat fitted curve, though single readings scatter; no compound was filed as active;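 further: 0% = full activity with enzyme and -100% = basal without enzyme; dose as in the result columns while the protocol names 77 µM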
# miR-21 FLuc – raises the signal of a miR-21 reporter | HeLa miR-21 FLuc reporter, luciferase, 48 h | Potency, µM (titrated, usually from 38.3 µM), without a hit: at the top dose reporter change, positive = more light | 340,000 tested, under 10 active | AID 2288; active = well fitted rising curve with a large enough effect; inconclusive = small, poorly fitted or top-dose-only effect; inactive = no such curve, though single readings can be large or run the other way;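 further: % of control where 0% means no effect; miR-21 action dims this reporter so a rising signal means less miR-21 action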
#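 Using DMEM plus 10% FBS, HeLa miR-21-FLuc cells are incubated with test compounds (final up to about 40uM) for 48 hours; firefly luciferase signal is then imaged following reagent-mediated lysis.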
# Rango-impB inh – inhibitors of Rango-importin beta complex formation. Potency, µM (series often up to 92.2 µM), for the others: top-dose inhibition of complex formation. Q14974. 340,000 tested, 0.031% active. Rango CFP/YFP FRET sensor + importin beta, 45 min; active = rising FRET ratio curve, often small or poorly fitted; inconclusive = mostly compound fluorescence or quenching in the first reads; inactive = flat curves in all reads;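 further: potency means the concentration at half of the fitted maximal effect; 0% = DMSO wells and 100% = buffer wells lacking importin beta; nearly all actives have a fitted effect of over 15% in size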
# Target sequence (Q14974 whole entry, looked up): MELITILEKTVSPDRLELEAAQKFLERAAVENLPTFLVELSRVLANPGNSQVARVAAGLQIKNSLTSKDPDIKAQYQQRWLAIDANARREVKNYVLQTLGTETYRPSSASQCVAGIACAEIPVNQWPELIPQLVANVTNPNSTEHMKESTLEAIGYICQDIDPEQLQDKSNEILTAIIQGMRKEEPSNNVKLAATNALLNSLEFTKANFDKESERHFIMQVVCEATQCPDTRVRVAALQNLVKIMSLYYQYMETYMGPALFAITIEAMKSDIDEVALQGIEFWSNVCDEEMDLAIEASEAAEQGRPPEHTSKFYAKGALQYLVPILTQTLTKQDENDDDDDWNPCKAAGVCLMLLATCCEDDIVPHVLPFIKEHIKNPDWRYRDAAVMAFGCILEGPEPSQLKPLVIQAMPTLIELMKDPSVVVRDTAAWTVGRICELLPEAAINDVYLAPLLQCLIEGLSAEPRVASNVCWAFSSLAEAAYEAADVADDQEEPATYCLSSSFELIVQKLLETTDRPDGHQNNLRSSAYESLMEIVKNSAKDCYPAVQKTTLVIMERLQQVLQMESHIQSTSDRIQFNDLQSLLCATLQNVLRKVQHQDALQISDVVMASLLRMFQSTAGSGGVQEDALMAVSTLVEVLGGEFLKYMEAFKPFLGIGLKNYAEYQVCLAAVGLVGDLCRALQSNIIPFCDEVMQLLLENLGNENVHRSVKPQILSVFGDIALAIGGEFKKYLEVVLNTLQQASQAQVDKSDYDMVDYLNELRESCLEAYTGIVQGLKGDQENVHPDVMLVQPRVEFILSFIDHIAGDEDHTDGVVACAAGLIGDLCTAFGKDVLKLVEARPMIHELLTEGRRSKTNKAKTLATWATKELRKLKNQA
#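 Inhibition scored from the CFP 486 nm/YFP 530 nm FRET ratio 45 min after adding 0.125 microM importin beta to 50 nM Rango biosensor preincubated 5 min with compound (room temperature, PBS with DTT, Tween-20, BSA). No-importin wells as positive control.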
# Rango dissoc inh – inhibition of RanGTP-driven Rango-importin beta dissociation. O95149+P62826. Biochemical FRET Rango-importin beta, RanGTP-induced dissociation. Potency, µM (highest dose often 46.1 µM), for inactives: top-dose activity change, negative = inhibition. 340,000 tested, 0.071% active; active means falling FRET ratio curve, often poorly fitted, with flat reads before Ran was added; inconclusive means other falling curves, or compound fluorescence or quenching; inactive means flat or rising ratio curve;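 further: potency means the concentration at half of the fitted maximal effect; % of control where 0% means no effect; nearly all actives have a fitted effect of over 45% in size; -100% = wells without RanGTP and RCC1; the record marks most hits as doubtful in a second field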
#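 Rango FRET biosensor (snurportin-1 IBB flanked by N-terminal EYFP and C-terminal CFP10) at 0.1 uM, with 0.25 uM importin beta in PBS, 1mM DTT, 0.02% Tween-20, 0.1% BSA. 0.6 uM Ran, 2mM GTP and 0.2 uM RCC1 were then added for 45 min at room temperature. Inhibition read as loss of FRET rise.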
# Starred values were filed as active, the others as inactive; u = inconclusive; x = no result given. Some of the compounds tested (hit frequency here may not be typical).
item	Compound	Rango-impB inh	GLA inh pH 4.5	miR-21 FLuc	Rango dissoc inh
1	Cc1cccc(OCCC(=O)OCC(=O)Nc2c(C)nn(-c3ccccc3)c2C)c1	0.0%	x	x	2%
2	CC1(C)CC(=O)C(N=Nc2c(F)cccc2F)=C(O)C1	-3.1%	-8	-1%	-13%
3	CCCc1c(C(=O)Nc2ccc(F)cc2F)cnn1-c1ccccc1	0.0%	-6	-7%	10%
4	C=CCn1c(=NC(=O)c2ccc(S(=O)(=O)N3CCCC3)cc2)sc2cc(NC(C)=O)ccc21	u	0	-6%	u
5	CCc1ccccc1NC(=O)COC(=O)C1C2CC3OC(=O)C1C3C2 (stereo not given)	-1.7%	x	0%	5%
6	CCc1nn(CC(=O)N2CCN(CC)CC2)c(=O)c2cc3sccc3n12	7.6%	x	-9%	-23%
7	Cc1ccc(/C=C2/C(=N)N3N=C(CC(=O)N4CCCC4)SC3=NC2=O)cc1	-5.4%	x	2%	-10%
8	CCOC(=O)C1CCN(C(=O)COC(=O)c2nc3nc(C)cc(C)n3n2)CC1	3.8%	x	x	-6%
9	Cc1cc(C)c(C)c(S(=O)(=O)NCc2ccncc2)c1C	1.6%	x	12%	-2%
10	COCc1cc(C)n(CC(=O)N2CCCC2)c(=O)c1C#N	5.2%	-16	-2%	3%
11	Cc1nc2cc(NC(=O)NCc3ccco3)ccc2n1C	u	-5	-59%	0%
12	COc1cc(N)c(Cl)cc1C(=O)OCC(=O)N(C)C1CCCCC1	-5.1%	x	x	-3%
13	COc1ccc(Cl)cc1N(CC(=O)Nc1cccc(SC)c1)S(C)(=O)=O	0.3%	-6	-4%	-14%
14	O=C(CN1CCN(Cc2ccccc2Cl)CC1)N=Nc1c(O)[nH]c2ccccc12	-1.7%	1	-10%	-2%
15	Cc1ccc(C(C(=O)NC2CCCC2)N2CCc3ccccc32)cc1 (stereo not given)	2.1%	-1	0%	-11%
16	C/C(=N\OCC(=O)Nn1c(C)nc2ccccc2c1=O)c1cccs1	5.3%	-10	3%	-17%
17	O=C(NC1CCCCC1)c1ccc(-c2ccc(Cl)cc2)o1	-3.6%	x	x	0%
18	CCC(C)/C(C)=N/NC(=O)c1ccc(CSc2nc3ccccc3s2)cc1 (stereo not given)	3.9%	-28	-21%	u
19	O=C(Nc1ccccc1)c1ccc(NCC2CCCO2)c([N+](=O)[O-])c1 (stereo not given)	2.4%	2	-51%	2%
20	O=C(COC(=O)CCc1ccccc1)Nc1ccccc1OC(F)F	-1.2%	-3	0%	-9%
21	CCCc1nnc(SCC(=O)N2CCOCC2)n1CC1CCCO1 (stereo not given)	0.4%	-4	1%	-9%
22	CCOC(=O)CSc1nc(N)c(C#N)cc1C#N	u	0	-72%	-14%
23	CC(C)CN1C(=O)c2ccc(C(=O)Nc3ccc(OCC(=O)O)cc3)cc2C1=O	-0.9%	x	-12%	14%
24	Cc1ccc(-c2nnc(SCC(=O)N/N=C/c3ccccc3C(=O)O)n2-c2ccc(C)cc2)cc1	1.0%	-6	0%	-14%
25	Cc1c(/C=N/NC(=O)c2ccc(Br)o2)cnn1C	1.8%	-11	-31%	15%
26	COc1ccc(CN2CCN(c3ncccn3)CC2)c(C)c1C	u	x	16%	1%
27	COc1ccccc1NCCC(=O)OCC(=O)Nc1cccc(S(=O)(=O)N(C)C)c1	4.5%	x	x	1%
28	CC1(C2CC2)NC(=O)N(CC(=O)NCc2ccc(Cl)cc2Cl)C1=O (stereo not given)	-5.5%	x	x	42%
29	CCCCCN=Cc1c(C)[nH]n(-c2nc3ccccc3s2)c1=O	5.4%	3	u	6%
30	CCOC(=O)C(C)(C)n1nnc(-c2ccc([N+](=O)[O-])cc2)n1	-2.1%	0	0%	2%
31	O=C(CSc1ncnc2c1cnn2-c1ccc(F)cc1)NCc1ccc2c(c1)OCO2	2.9%	-2	-14%	11%
32	O=c1nccc(N/N=C/c2cccc(O)c2)[nH]1	u	x	-21%	-20%
33	Cc1nc(N=C(N)N)nc2c(C)cccc12	-2.4%	-10	10%	-7%
34	CCC(=O)NC(=S)Nc1ccc(NC(=O)c2ccco2)c(Cl)c1	-3.5%	-4	-16%	-3%
35	O=C(c1cccs1)N1CCC(c2nc3c(nnn3Cc3ccccc3Cl)c(=O)[nH]2)CC1	0.3%	x	-10%	13%
36	CC(OC(=O)C1CC(=O)N(Cc2ccco2)C1)C(=O)Nc1ccccc1[N+](=O)[O-] (stereo not given)	-0.1%	x	x	-4%
37	CCN(CC(=O)NC(=O)NC1CCCCC1)Cc1ccccc1	-0.3%	x	x	-9%
38	Cc1cccc(NC(=O)N(Cc2cc3cc(C)cc(C)c3[nH]c2=O)CC2COCCO2)c1 (stereo not given)	4.7%	4	-1%	12%
39	N/C(Cc1ccc(Cl)cc1Cl)=N\OC(=O)c1ccc(Br)o1	-1.2%	10	-6%	1%
40	COc1ccccc1-c1nnc(SCC(=O)NC2CCCCC2)o1	0.8%	-8	-11%	16%
41	O=C(CCN1C(=O)[C@@H]2Cc3ccccc3CN2C1=O)N[C@@H](C(=O)O)c1ccccc1	-2.6%	x	-1%	-12%
42	Cc1ccc(S(=O)(=O)N2CCc3ccccc3C2CN2C(=O)c3ccccc3C2=O)cc1 (stereo not given)	-0.3%	-12	-1%	18%
43	CN(C)C(=O)CCC(=O)N1CCCC(C(=O)c2ccc3c4c(cccc24)CC3)C1 (stereo not given)	-3.7%	5	-17%	-10%
44	CC1CCC(NC(=O)COC(=O)CSc2ccc(C(N)=O)cc2[N+](=O)[O-])CC1 (stereo not given)	5.2%	x	x	4%
45	O=C(CCC1CCCC1)N=C1SC2CS(=O)(=O)CC2N1Cc1ccccc1 (stereo not given)	-1.4%	x	2%	-1%
46	Cc1ccnc(NC(c2ccncc2)c2c(C)[nH]c3ccccc23)c1 (stereo not given)	0.7%	-1	0%	5%
47	Cn1c(NCc2ccccc2O)nc2ccccc21	-0.1%	-10	-48%	7%
48	O=C1CC(O)(C(F)(F)F)Oc2c1ccc1ccccc21 (stereo not given)	-1.5%	-7	-3%	-7%
49	CCOc1ccc(Br)cc1S(=O)(=O)Nc1cccc(S(=O)(=O)NC2=NCCC2)c1	0.0%	5	2%	18%
50	COc1ccc(N2C(=O)C(CC(=O)Nc3ccccc3)N(Cc3ccc4c(c3)OCO4)C2=O)cc1 (stereo not given)	-2.3%	-6	6%	6%
51	CCOC(=O)/C(C#N)=C\c1ccc(CC)s1	-1.1%	-9	-32%	-7%
52	CCOc1ccc(C(=O)NNC(=O)CCNC(=O)c2ccc(Br)cc2)cc1OC	-1.7%	x	x	-4%
53	CCOC(=O)c1cc2cc3ccccc3cc2[nH]1	u	2	-57%	u
54	O=C(CCC1CCCCC1)NCCN1CCOCC1	2.7%	x	-1%	-20%
55	Cc1ccc(NC(=O)CSc2nnc(NC(=O)CN3CCOCC3)s2)cc1	0.4%	5	-2%	0%
56	CCCCOC(=O)Nc1ccc(C(=O)OCCC)cc1	2.8%	-1	-38%	-8%
57	CCN(CC)S(=O)(=O)c1cc(OC)c(Cl)cc1Cl	2.3%	-2	-9%	1%
58	Nc1cc(=O)[nH]n1C1CCCCC1	-0.7%	5	7%	-11%
59	CCOC(=O)CN1C(=O)Nc2ccc(Br)cc2C1c1ccccc1 (stereo not given)	-4.4%	-2	1%	1%
60	COc1ccc(C(=O)N2CC3(C)CC2CC(C)(C)C3)cc1 (stereo not given)	-4.5%	6	0%	2%

# Later entries:
item	Compound	Rango-impB inh	GLA inh pH 4.5	miR-21 FLuc	Rango dissoc inh
61	CCCCn1nnnc1SCC(=O)Nc1ccc(N(C)C)cc1	0.7%	3	-4%	-5%
62	CCN1CCN(C(=O)CS(=O)(=O)Cc2nc(-c3ccc(C)cc3)oc2C)CC1	1.9%	6	1%	7%
63	COC(=O)c1sc(NC(=O)COC(=O)C2CCC2)c(C(=O)OC)c1C	3.2%	x	x	42%
64	O=C(CCCOc1ccccc1)n1nnc2ccccc21	-0.5%	10	-2%	9%
65	C#CC(CC)(CC)NC(=O)c1c(C)noc1C	0.4%	10	-5%	14%
66	COC(=O)c1c(NC(=O)c2ccoc2C)sc(C)c1C	-2.5%	x	-1%	-18%
67	CCOc1ncccc1C(=O)Nc1ccc(-c2cn3ccsc3n2)cc1	6.6%	-6	-8%	9%
68	O=C(N/N=C/c1cccc([N+](=O)[O-])c1)c1cc2c(ccc3ccccc32)o1	2.5%	-1	-6%	-5%
69	O=C(c1ccccc1)N1CCN(C(=O)N2CCOCC2)CC1	-0.3%	5	-2%	8%
70	CCOc1ccc(S(=O)(=O)N2CCCC(C(=O)N3CCOCC3)C2)cc1Cl (stereo not given)	0.4%	x	-2%	18%
71	CCNC(=O)Cn1c(=O)c2c(ncn2Cc2ccccc2)n(Cc2ccccc2)c1=O	-1.9%	8	0%	21%
72	C=CCOc1ccc(/C=N/NC(=O)CN(c2cc(Cl)ccc2OC)S(=O)(=O)c2ccc(C)c([N+](=O)[O-])c2)cc1	7.0%	-5	-12%	-22%
73	NC(=O)COC(=O)c1ccc(NS(=O)(=O)c2ccc3c(c2)OCCO3)cc1	5.7%	-29	-4%	30%
74	O=C(N/N=C/c1c(F)c(F)c(F)c(F)c1F)c1cccc(S(=O)(=O)N2CCOCC2)c1	1.9%	1	1%	0%
75	CC(C)CN(C(=O)CN1CCc2ccccc21)c1c(N)n(CC(C)C)c(=O)[nH]c1=O	u	-31	-8%	-24%
76	COc1cc(C2C(Oc3ccccc3C)C(=O)N2Cc2ccc(F)cc2)cc(OC)c1OC (stereo not given)	0.2%	-14	1%	-2%
77	C=CCSc1n[nH]c(-c2ccc(OCCC)cc2)n1	-6.3%	2	-41%	0%
78	COc1cc(CCC(=O)OCn2nnc3ccccc3c2=O)cc(OC)c1OC	-5.0%	1	-11%	3%
79	COc1ccc(C)cc1N(CC(=O)N1CCCC1)S(C)(=O)=O	-1.7%	x	-3%	-11%
80	Cc1ccc(S(=O)(=O)NC(=O)Nc2cc(C)no2)cc1	-0.6%	x	0%	16%
81	Oc1c(Cl)cc(Cl)cc1CNc1ccccn1	0.2%	x	-14%	19%
82	CSCCC(NC(=O)c1ccccc1)C(=O)N(C)CC(=O)Nc1ccc(N2CCOCC2)cc1 (stereo not given)	-3.2%	x	0%	-1%
83	CCOc1nc(-c2ccccc2)ccc1-c1noc(-c2ccco2)n1	u	-2	-13%	-15%
84	Cc1cc(C)nc(N2CCC(C(=O)NC3CC3)CC2)n1	0.2%	x	6%	-2%
85	COc1ccc(-n2cc(-c3ccccc3)c3c(N4CCN(CCO)CC4)ncnc32)cc1	7.7%	-8	6%	7%
86	CCOc1ccccc1OCC(=O)NC1CCCCC1	0.8%	6	-5%	18%
87	Nc1ncc(Br)cc1S(=O)(=O)Nc1cc(C(F)(F)F)cc(C(F)(F)F)c1	0.0%	x	u	13%
